DUX4 inh: DUX4-mediated transcription inhibition. 293T-iDUX4 ZSCAN4-Gaussia luciferase reporter, 24 h; active compounds read low. 37,000 compounds, 0.8% hits. activity change, negative = inhibition, % (test concentration not listed). AID 1224904;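 active means -10% or lower and over 25 points stronger than a control reporter; inconclusive means -10% or lower with a smaller gap; inactive means above -10%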;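 further: 0% = median of neutral control wells and -100% = median of positive control wells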
DUX4 inh difference: also measured in DUX4 inh; calls as there; Gaussia minus Italica difference, %; measured here: selective DUX4 reporter inhibition;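 worked out from the two reporters; negative = selective loss of the DUX4 reporter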
DUX4 inh control: second read-out of DUX4 inh, no call of its own (marks repeat the call); activity change, negative = inhibition, %; measured here: Italica tet-on control reporter;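 0 = neutral control and -100 = positive control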
Active calls of the source: *; ? = inconclusive; . = not tested or not shown; & = joins results of further samples. Some of the compounds tested; rates above refer to the full screens.

DUX4 inh difference,DUX4 inh control,DUX4 inh,canonical_smiles
10,0.1,10,N#Cc1ccc(-c2ccc([C@H]3[C@H](CO)N4C(=O)CNC[C@@H]34)cc2)cc1
-1,4.4,3,CC(C)c1cn(CC[C@@H]2CC[C@H](NS(=O)(=O)c3ccc(F)cc3)[C@@H](CO)O2)nn1
3,-0.4,3,CO[C@@H]1CC[C@@H]2CCN(C)C(=O)C[C@H](c3ccccc3)CN(C)C(=O)c3cccc(C#N)c3OC[C@@H]1O2
.,.,?,O=C(c1ccc(F)cc1)N1CC2(C1)[C@H](c1ccccc1)[C@@H](CO)N2Cc1ccccn1
17,-13,3,COc1ccc(-c2cnc3c(c2)C(=O)N([C@H](C)CO)C[C@@H](C)[C@@H](CN(C)Cc2ccc(C(=O)O)cc2)O3)cc1
11,4.7,15,CN(C)C(=O)c1ccc(-c2ccccc2[C@@H]2[C@H](C#N)N(C(=O)C3CCC3)[C@H]2CO)cc1
-2,3.9,2,C[C@H]1CCCCO[C@@H](CN(C)S(=O)(=O)c2ccccc2)[C@@H](C)CN([C@@H](C)CO)C(=O)c2cc(NC(=O)CCC(F)(F)F)ccc2O1
-4,8.7,5,O=C(C1CCOCC1)N1C[C@@H]2[C@H](c3ccccc31)[C@@H](CO)N2C(=O)Cc1ccccn1
0,-0.8,-1,Cc1cc(C(=O)Nc2ccc3c(c2)C(=O)N(C)[C@H]2CC[C@@H](CC(=O)N[C@H](C)c4ccccc4)O[C@H]2CO3)no1
-3,1.2,-2,CC=Cc1ccc2n(c1=O)C[C@@H]1[C@@H](CO)[C@H](C(=O)NCC3CC3)[C@H]2N1CCC(F)(F)F (mixture of isomers)
-2,0.9,-1,C[C@@H]1CN([C@@H](C)CO)C(=O)c2cc(NC(=O)CCCN(C)C)ccc2O[C@@H](C)CCCCO[C@@H]1CN(C)S(=O)(=O)c1ccc(Cl)cc1
-1,7.4,6,O=C(CC1CC1)N1CC[C@@H]2[C@@H](CO)Nc3ccc(-c4ccccc4)cc3[C@@H]21
-1,1.2,0,CN1C(=O)c2cc(NC(=O)c3ccc4c(c3)OCO4)ccc2OC[C@@H]2O[C@H](CC(=O)O)CC[C@@H]21
-1,2.7,2,CCC(=O)Nc1ccc2c(c1)C(=O)N(C)C[C@H](OC)[C@@H](C)CN(C(=O)c1cnccn1)[C@@H](C)CO2
4,-7.2,-3,COc1cccc(-c2ccc3c(c2)[C@H]2[C@H](CCN2S(=O)(=O)c2ccc(F)cc2)[C@H](CO)N3C)c1
-11,8.2,-3,CC(C)CC#Cc1ccc([C@@H]2[C@@H](CO)N3C(=O)CN(C(=O)c4ccccn4)C[C@@H]23)cc1
-11,8.9,-2,O=C(C[C@H]1CC[C@H]2[C@@H](COC[C@@H](O)CN2C(=O)Nc2ccc(Cl)cc2)O1)NCC1CCCCC1
0,0.4,1,CCC(=O)N1C[C@H]2[C@@H](c3ccccc31)[C@@H](CO)N2C(=O)CC1CC1
-1,6.0,5,Cc1ccccc1-c1cnc2c(c1)C(=O)N([C@H](C)CO)C[C@@H](C)[C@@H](CN(C)C(=O)c1ccncc1)O2
1,1.6,2,CCc1cnc(N2[C@@H](C#N)[C@@H](c3ccc(C#CC(C)C)cc3)[C@@H]2CO)s1
-1,1.9,1,C[C@H]1CCCCO[C@H](CN(C)CC2CCCCC2)[C@@H](C)CN([C@@H](C)CO)C(=O)c2cc(NS(C)(=O)=O)ccc2O1
-1,0.1,-1,Cc1ccc(S(=O)(=O)N(C)C[C@H]2Oc3c(NS(C)(=O)=O)cccc3C(=O)N([C@@H](C)CO)C[C@@H]2C)cc1
2,-10,-8,OC[C@H]1[C@H](c2ccc(-c3ccc(F)cc3)cc2)[C@H]2CN(Cc3cccnc3)CCCCN21
-9,4.4,-4,CC(C)(C)S(=O)N1Cc2cc(C(=O)N3CCN(Cc4ccccc4)CC3)nc(-c3cccc(-c4cc5ccccc5o4)c3)c2[C@H]1CCO (stereo partly specified)
1,2.2,3,CC=Cc1ccc2n(c1=O)C[C@H]1[C@H](CO)[C@@H](C(=O)NC3CCCC3)[C@@H]2N1C(=O)c1cnccn1 (mixture of isomers)
-3,11,8,N#Cc1cccc(-c2ccc(C3[C@H]4CNC[C@@H]3N4Cc3cncnc3)cc2)c1 (stereo partly specified)
-5,6.2,1,C/C=C/c1ccc([C@H]2[C@H](CO)N3C(=O)CN(S(=O)(=O)c4cccc(F)c4)C[C@@H]23)cc1
-2,-4.7,-7,COc1ccc(-c2ccccc2[C@H]2[C@@H](CO)N(C(=O)C3CCCCC3)[C@H]2C#N)cc1
4,-6.5,-3,CC(C)CC#Cc1ccc([C@@H]2[C@H](CO)N3C(=O)CN(C(=O)NC(C)C)C[C@@H]23)cc1
5,5.8,11,CC(=O)N1CC(=O)N2[C@H](CO)[C@@H](c3ccc(-c4ccc(C(=O)N(C)C)cc4)cc3)[C@H]2C1

(cont.)
DUX4 inh difference,DUX4 inh control,DUX4 inh,canonical_smiles
-2,-2.0,-4,C[C@@H]1CCCCO[C@@H](CN(C)Cc2ccncc2)[C@@H](C)CN([C@@H](C)CO)C(=O)c2cc(NS(=O)(=O)c3ccc(Cl)cc3)ccc2O1
.,.,?,N#C[C@@H]1[C@H](c2ccccc2C2=CCCCC2)[C@H](CO)N1S(=O)(=O)c1ccccc1
-1,2.1,1,COc1ccccc1C#Cc1ccc2c(c1)O[C@H](CN(C)Cc1ccncc1)[C@@H](C)CN([C@H](C)CO)S2(=O)=O
.,.,?,O=C(C[C@@H]1CC[C@H]2[C@@H](COC[C@H](O)CN2S(=O)(=O)c2ccccc2Cl)O1)NCc1ccccc1Cl
-3,3.0,0,COCCNC(=O)C[C@H]1CC[C@@H]2[C@H](COc3ccc(NS(=O)(=O)c4ccc(Cl)cc4)cc3C(=O)N2C)O1
19,-13,6,COc1ccc(-c2ccc3c(c2)[C@@H]2[C@@H](CCN2S(=O)(=O)c2ccc(OC)cc2)[C@@H](CO)N3)cc1
-11,5.3,-6,CC(=O)N1CC2(C1)[C@H](c1ccc(-c3ccc(F)cc3)cc1)[C@@H](CO)N2CC1CC1
4,1.5,6,CCC(=O)Nc1ccc2c(c1)OC[C@H](C)N(C(=O)C1CC1)C[C@H](C)[C@@H](OC)CN(C)C2=O
3,1.9,5,CCCNC(=O)C[C@H]1CC[C@H]2[C@@H](COC[C@@H](O)CN2C(=O)c2ccccn2)O1
0,-0.3,0,CC(C)NC(=O)N(C)C[C@H]1OCCCC[C@@H](C)Oc2ccc(NS(C)(=O)=O)cc2C(=O)N([C@H](C)CO)C[C@H]1C
11,13,24,CN(C)C(=O)c1ccc(-c2ccc3c(c2)[C@@H]2[C@@H](CCN2Cc2cncnc2)[C@@H](CO)N3)cc1
-4,8.9,5,CC=Cc1ccc2n(c1=O)C[C@@H]1[C@@H](CO)[C@H](C(=O)N3CCCCC3)[C@H]2N1CC1CCCC1 (mixture of isomers)
.,.,?,O=C(Nc1ccccc1F)N1CC(=O)N2[C@@H](CO)[C@@H](c3ccc(C#CC4CC4)cc3)[C@@H]2C1
5,-4.2,1,C[C@H](CO)N1C[C@H](C)[C@@H](CN(C)CC2CCOCC2)Oc2ncc(C#CCc3ccccc3)cc2C1=O
2,2.2,4,CO[C@@H]1CN(C)C(=O)c2ccc(NS(C)(=O)=O)cc2OC[C@H](C)NC[C@@H]1C
2,1.3,3,COc1ccccc1-c1ccc([C@H]2[C@@H](C#N)N(C(=O)CN(C)C)[C@@H]2CO)cc1
2,-0.9,1,COc1ccccc1C(=O)N1C[C@H]2[C@@H](c3ccccc31)[C@H](CO)N2C(=O)Cc1ccccc1
5,-0.7,5,CC(C)NC(=O)N[C@@H]1CC[C@H](CCNC(=O)C2CCOCC2)O[C@@H]1CO
-5,1.9,-3,COc1ccc(S(=O)(=O)N(C)C[C@H]2Oc3ccc(N(C)C)cc3CC(=O)N([C@H](C)CO)C[C@@H]2C)cc1
21,-5.5,15,O=C(c1cnccn1)N1CC(=O)N2[C@H](CO)[C@@H](c3ccc(-c4cccc(F)c4)cc3)[C@@H]2C1
-3,3.2,1,CN1C(=O)c2cc(NS(C)(=O)=O)ccc2OC[C@H]2O[C@@H](CC(=O)O)CC[C@H]21
2,-4.4,-3,O=C(C[C@H]1CC[C@H]2[C@@H](COC[C@@H](O)CN2S(=O)(=O)c2cccc(Cl)c2)O1)NCc1ccc2c(c1)OCO2
-6,5.1,-1,C[C@@H]1CN([C@@H](C)CO)C(=O)c2cccc(NC(=O)c3nc4ccccc4s3)c2O[C@H]1CN(C)Cc1ccc(C(F)(F)F)cc1
8,-0.9,7,CCN1[C@@H]2c3ccc(C4=CCCCC4)c(=O)n3C[C@@H]2[C@@H](CO)[C@@H]1C(=O)NCc1ccccn1
-1,-0.5,-2,Cc1noc(C)c1NC(=O)N[C@@H]1CC[C@@H](CC(=O)N2CCN(C)CC2)O[C@@H]1CO
-4,1.1,-3,CN1[C@@H]2c3ccc(-c4ccccc4)c(=O)n3C[C@H]1[C@H](CO)[C@H]2C(=O)NCC1CCCCC1
-26*,-3.7*,-29*,CN1c2ccc(C#Cc3ccccc3F)cc2[C@H]2[C@H](CCN2C(=O)c2cnccn2)[C@H]1CO
-5,-0.2,-5,COc1ccc(S(=O)(=O)N(C)C[C@@H]2Oc3ccc(N(C)C)cc3CC(=O)N([C@@H](C)CO)C[C@@H]2C)cc1
3,1.1,4,OC[C@@H]1[C@@H](c2ccccc2)C2(CN(Cc3cccnc3)C2)N1Cc1cccnc1
.,.,?,N#Cc1cccc(-c2ccc3c(c2)[C@H]2[C@H](CCN2S(=O)(=O)c2ccccc2F)[C@H](CO)N3)c1

New compounds follow.
DUX4 inh difference,DUX4 inh control,DUX4 inh,canonical_smiles
.,.,?,O=C(Nc1ccc(F)cc1)N1CC(=O)N2[C@H](CO)[C@@H](c3ccc(C#Cc4cccnc4)cc3)[C@@H]2C1
.,.,?,C[C@H]1CN([C@@H](C)CO)C(=O)c2ccccc2-c2ccccc2CO[C@H]1CN(C)Cc1cccc(C(F)(F)F)c1
1,-0.9,0,CCC(=O)NC[C@@H]1N[C@@H](CO)[C@H]1c1ccc(-c2cccc(C#N)c2)cc1
-2,9.3,7,CCCN1C[C@@H](C)[C@@H](OC)CN(C)C(=O)c2cc(NS(=O)(=O)c3ccccc3)ccc2OC[C@H]1C
.,.,?,COc1cccc(-c2ccc([C@H]3[C@@H](CO)N4CCCCN(C(=O)c5ccc6c(c5)OCO6)C[C@H]34)cc2)c1
.,.,?,Cc1ccc(S(=O)(=O)N2C[C@@H](O)COC[C@@H]3O[C@@H](CC(=O)N[C@@H]4CCN(Cc5ccccc5)C4)CC[C@H]32)cc1
-4,0.2,-4,N#C[C@H]1[C@H](c2ccccc2)[C@@H](CO)N1S(=O)(=O)c1ccc(F)cc1
1,3.3,4,C/C=C/c1ccc([C@H]2[C@@H](CO)N(C(=O)CC)[C@@H]2CNC(=O)C2CC2)cc1
1,-3.6,-3,CN(C)CC(=O)N1[C@H](C#N)[C@@H](c2ccc(C#CC3CCCC3)cc2)[C@@H]1CO
18,-5.1,13,O=C(C[C@@H]1CC[C@H]2NC[C@@H](O)COC[C@@H]2O1)Nc1ccc(-c2ccccc2)cc1
6&-7,-2.0&-0.5,4&-7,C/C=C/c1ccc(C2[C@@H]3CN(S(=O)(=O)c4ccc(C)cc4)C[C@H]2N3)cc1 (stereo partly specified)
0,4.5,4,CC(C)NC(=O)N1[C@H](C#N)[C@H](c2ccccc2-c2ccc(F)cc2)[C@@H]1CO
4,1.2,5,C[C@H]1CN([C@@H](C)CO)C(=O)CCCn2cc(nn2)CO[C@@H]1CN(C)S(=O)(=O)c1cccc(F)c1
-2,1.6,0,C[C@@H]1CCCCO[C@@H](CN(C)C(=O)C2CCCCC2)[C@H](C)CN([C@@H](C)CO)C(=O)c2cc(NC(=O)c3ccncc3)ccc2O1
-5,1.3,-3,C[C@H](CO)N1C[C@H](C)[C@@H](CN(C)CC2CCCCC2)OCCCC[C@H](C)Oc2ccc(NC(=O)CCC(F)(F)F)cc2C1=O
9,-7.1,2,CCC(=O)N1C[C@@H]2[C@H](c3ccccc31)[C@H](CO)N2C(=O)Nc1ccccc1

Reformatted in CSV form: 10 of the compounds above.
canonical_smiles,DUX4 inh difference,DUX4 inh control,DUX4 inh
Cc1ccc(S(=O)(=O)N2C[C@@H](O)COC[C@@H]3O[C@@H](CC(=O)N[C@@H]4CCN(Cc5ccccc5)C4)CC[C@H]32)cc1,.,.,?
N#C[C@H]1[C@H](c2ccccc2)[C@@H](CO)N1S(=O)(=O)c1ccc(F)cc1,-4,0.2,-4
C/C=C/c1ccc([C@H]2[C@@H](CO)N(C(=O)CC)[C@@H]2CNC(=O)C2CC2)cc1,1,3.3,4
CN(C)CC(=O)N1[C@H](C#N)[C@@H](c2ccc(C#CC3CCCC3)cc2)[C@@H]1CO,1,-3.6,-3
O=C(C[C@@H]1CC[C@H]2NC[C@@H](O)COC[C@@H]2O1)Nc1ccc(-c2ccccc2)cc1,18,-5.1,13
C/C=C/c1ccc(C2[C@@H]3CN(S(=O)(=O)c4ccc(C)cc4)C[C@H]2N3)cc1 (stereo partly specified),6&-7,-2.0&-0.5,4&-7
CC(C)NC(=O)N1[C@H](C#N)[C@H](c2ccccc2-c2ccc(F)cc2)[C@@H]1CO,0,4.5,4
C[C@H]1CN([C@@H](C)CO)C(=O)CCCn2cc(nn2)CO[C@@H]1CN(C)S(=O)(=O)c1cccc(F)c1,4,1.2,5
C[C@@H]1CCCCO[C@@H](CN(C)C(=O)C2CCCCC2)[C@H](C)CN([C@@H](C)CO)C(=O)c2cc(NC(=O)c3ccncc3)ccc2O1,-2,1.6,0
C[C@H](CO)N1C[C@H](C)[C@@H](CN(C)CC2CCCCC2)OCCCC[C@H](C)Oc2ccc(NC(=O)CCC(F)(F)F)cc2C1=O,-5,1.3,-3

Screens (PubChem)
